# RecA splice inh – blocks M. tuberculosis RecA intein splicing | P9WHJ3 | cell-free RecA intein splicing, fluorescence | inhibition, %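 (about 9 µM by stock and volumes)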 | 290,000 tested, 0.75% active; in the data active = inhibition above about 30%;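 also: 0% = vehicle wells and 100% = reference inhibitor control wells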
# Target sequence (P9WHJ3 whole entry, looked up, canonical isoform): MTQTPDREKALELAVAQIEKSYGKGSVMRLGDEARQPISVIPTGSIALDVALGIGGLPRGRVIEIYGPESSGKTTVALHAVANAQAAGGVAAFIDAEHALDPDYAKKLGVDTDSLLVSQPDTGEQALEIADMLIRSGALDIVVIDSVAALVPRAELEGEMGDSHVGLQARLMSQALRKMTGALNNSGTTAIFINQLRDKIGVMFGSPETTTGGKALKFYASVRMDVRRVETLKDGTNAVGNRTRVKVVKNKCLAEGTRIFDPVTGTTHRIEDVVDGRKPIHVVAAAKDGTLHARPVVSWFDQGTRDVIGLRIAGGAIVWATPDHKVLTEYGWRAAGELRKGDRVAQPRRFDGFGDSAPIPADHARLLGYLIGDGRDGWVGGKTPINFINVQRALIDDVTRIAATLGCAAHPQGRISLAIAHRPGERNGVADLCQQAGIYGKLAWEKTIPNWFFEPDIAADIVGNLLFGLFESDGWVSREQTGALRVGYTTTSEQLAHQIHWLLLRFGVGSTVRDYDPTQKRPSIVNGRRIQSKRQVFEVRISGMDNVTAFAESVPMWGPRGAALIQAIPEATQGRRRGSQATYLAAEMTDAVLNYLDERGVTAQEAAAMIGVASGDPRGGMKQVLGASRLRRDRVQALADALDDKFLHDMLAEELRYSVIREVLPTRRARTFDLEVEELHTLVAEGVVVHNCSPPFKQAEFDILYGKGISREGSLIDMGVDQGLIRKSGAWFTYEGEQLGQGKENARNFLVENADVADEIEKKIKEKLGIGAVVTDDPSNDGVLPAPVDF
# Mtb bLac sens – beta-lactam sensitization of Mtb H37Rv; inhibition, % at 25 µM; 330,000 tested, 0.27% active; M. tuberculosis H37Rv growth with meropenem, percent inhibition; hits of this screen are not shown here;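 active = about 74% or more and at least 40 points above the plate without the antibiotic, then above 30% in a dose series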;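 also: growth measured after seven days incubation then overnight dye step; 0% = bacteria only wells and 100% = bacteria with antibiotic; twin plates without the antibiotic show which effects depend on it; some results filed as inactive read as strong as hits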
# Mtb H37Rv – M. tuberculosis H37Rv growth inhibitors, H37Rv strain (AID 1626); one-dose inhibition, % at 10 µM; IC50 in µM for titrated hits; M. tuberculosis H37Rv growth inhibition; higher % means a stronger effect; 220,000 tested, 0.95% active;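 active = confirmed in a dose series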;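 also: bacteria incubated seven days before Alamar blue readout; 0% = bacteria only wells and 100% = bacteria with antibiotic wells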
# YopH PTP inh – blocks Yersinia enterocolitica YopH tyrosine phosphatase | inhibition, %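 (about 10 µM by stock and volumes)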 | fluorescence Ex485/Em525 | 140,000 tested, 0.16% active;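 active = inhibition of 50% or more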;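 also: controls were vehicle for no effect and minimum signal wells for full effect; inactives centre near -20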
# Arbovirus anti – arbovirus infection inhibition | arbovirus infection cell-based antiviral screen | inhibition, % at 10 µM | 200,000 tested, 0.37% active | AID 1251;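 active = inhibition from about 30%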;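 also: bluetongue infection of BSR cells; cell survival read as ATP light after 72 h; 0% = infected wells without compound and 100% = uninfected wells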
# Active calls of the source: *; / = not tested or not shown. These rows are one share of the data, so the mix of outcomes need not match the whole.
# Results follow in this order: RecA splice inh, Mtb bLac sens, Mtb H37Rv, Arbovirus anti, YopH PTP inh
O=C(NCCc1ccccc1)C(=O)NCC1CCCO1 (centres undefined)
    -1.8, 7, -4%, -2, 10
Cc1cc(C)cc(C(=O)NC(=S)Nc2ccc3[nH]c(=O)[nH]c3c2)c1
    -0.5, 0, -1%, -5, -12
CCOC(=O)C1=C(COC(=O)c2c(OC)cccc2OC)NC(=O)NC1C (centres undefined)
    1.1, -4, /, /, /
COc1ccc(N=C(C)c2c(O)n(C3CCCCC3)c(=O)[nH]c2=O)c(OC)c1
    1.9, -1, -6%, -1, -32
Cc1cccc(C(=O)Nc2ccc(O)c3c(=O)cc(-c4ccccc4Cl)oc23)c1
    0.7, -4, -9%, -12, -37
COC(=O)c1c(C)n(Cc2ccco2)c2ccc(O)cc12
    -1.1, /, 4%, 8, -6
O=C(CN1C(=O)/C(=C/c2c(F)cccc2Cl)Oc2ccccc21)NCc1ccco1
    -9.5, 3, /, -10, /
O=C(CN1CCOCC1)N1CCCc2c1c(=O)oc1ccc(OCc3ccccc3)cc21
    0.1, 3, -6%, 4, -27
CCCOc1ccc(N2C(=O)CC(N(Cc3ccco3)C(=O)CCC(=O)O)C2=O)cc1 (centres undefined)
    -0.8, 1, -3%, /, /
CCCc1cc(C(=O)N2CCCC(Cc3cccc(Cl)c3)(C(=O)OCC)C2)n(C)n1 (centres undefined)
    6.6, 2, /, /, /
Cc1ccc(C(=O)N/N=C/c2cc(C)n(-c3ccc(Br)cc3)c2C)cc1[N+](=O)[O-]
    -1.7, 68, 5%, -13, -2
Cc1ccc(N/C=C2\C(=O)C3(C)CCC2C3(C)C)cc1C (centres undefined)
    -1.3, 67, -3%, 4, /
COc1ccccc1NNC(=O)C(O)(c1ccccc1)c1ccccc1
    /, -4, -13%, /, /
CC1(C)CC(=O)C2=C(C1)NC1=C(C(=O)c3ccccc31)C2c1cccnc1 (centres undefined)
    -1.9, 6, 11%, 13, /
Cc1ccc(OCCOc2cccc3ccc(C)nc23)c([N+](=O)[O-])c1
    -4.6, 1, 4%, 3, /
O=C(C(=O)N1CCCCC1)c1c(-c2ccccc2)[nH]c2ccccc12
    2.7, -4, /, /, /
COC(=O)c1ccc(CSc2nc3ccccc3[nH]2)o1
    0.6, -14, 5%, 9, -31
COc1cc(OC)cc(C(=O)N[C@H](C(=O)Nc2ccccc2N2CCOCC2)C(C)C)c1
    -3.0, 3, -3%, -11, -24
CC(=O)Nc1ccc(S(=O)(=O)NCC2CCC(C(=O)N3CCN(c4ccccn4)CC3)CC2)cc1 (centres undefined)
    1.0, -4, -2%, 5, -27
COc1ccc(Br)cc1/C=N/NC(=O)CNC(=O)c1cccnc1
    -3.5, -2, -8%, /, /

# Continued; the last 2 above are carried over.
# Results follow in this order: RecA splice inh, Mtb bLac sens, Mtb H37Rv, Arbovirus anti, YopH PTP inh
CC(=O)Nc1ccc(S(=O)(=O)NCC2CCC(C(=O)N3CCN(c4ccccn4)CC3)CC2)cc1 (centres undefined)
    1.0, -4, -2%, 5, -27
COc1ccc(Br)cc1/C=N/NC(=O)CNC(=O)c1cccnc1
    -3.5, -2, -8%, /, /
CC(=O)c1cc(CCC(=O)NC2CCCCCC2)oc1C
    -1.4, -1, /, /, /
CC(C)(C)c1ccc(C(CC(=O)O)NC(=O)C23CC4CC(CC(C4)C2)C3)cc1 (centres undefined)
    0.8, 6, /, /, /
Cc1[nH]n(-c2ccccc2)c(=S)c1C=Nc1ccc([N+](=O)[O-])cc1
    /, 7, 4%, -23, -38
CCN=C(Nc1cccc(F)c1)SC1CC(=O)N(c2ccc(OC)cc2)C1=O (centres undefined)
    -0.1, 1, -6%, 2, -53
Cc1coc2cc3oc(=O)c(CC(=O)N(C)CC(=O)O)c(C)c3cc12
    -2.1, 7, /, /, /
CCOc1nnnc2c1sc1nc(N3CCOCC3)c3c(c12)CCCC3
    1.8, /, 7%, -1, -8
COc1ccc(-n2nc(C(=O)NCC(=O)NCCc3ccc(OC)c(OC)c3)c3ccccc3c2=O)cc1
    -0.8, 2, /, /, /
CC1(C)NC(=O)N(CCOCCOc2ccccc2-c2ccccc2)C1=O
    -0.8, 5, 3%, 2, /
CCCCN(CCCC)c1ccc(C(=O)c2ccccc2C(=O)O)c(O)c1
    3.9, 4, 11%, 7, -22
Fc1ccc(-c2nnc(Cc3ccc(Cl)cc3)o2)cc1
    3.4, 7, 16%, /, /

# Part of the list above with just Mtb H37Rv, Arbovirus anti and YopH PTP inh:
molecule	Mtb H37Rv	Arbovirus anti	YopH PTP inh
Cc1ccc(C(=O)N/N=C/c2cc(C)n(-c3ccc(Br)cc3)c2C)cc1[N+](=O)[O-]	5%	-13	-2
Cc1ccc(N/C=C2\C(=O)C3(C)CCC2C3(C)C)cc1C (centres undefined)	-3%	4	/
COc1ccccc1NNC(=O)C(O)(c1ccccc1)c1ccccc1	-13%	/	/
CC1(C)CC(=O)C2=C(C1)NC1=C(C(=O)c3ccccc31)C2c1cccnc1 (centres undefined)	11%	13	/
Cc1ccc(OCCOc2cccc3ccc(C)nc23)c([N+](=O)[O-])c1	4%	3	/

# Continuation:
# Results follow in this order: RecA splice inh, Mtb bLac sens, Mtb H37Rv, Arbovirus anti, YopH PTP inh
COc1cccc(OCCOCCN(C)CCO)c1
    1.6, -13, -4%, 2, 2
NC(=O)COc1ccc2oc(=O)cc(-c3cc4ccccc4o3)c2c1
    -4.3, 62, /, /, /
CCN1CCN(S(=O)(=O)c2cc(OC)ccc2OC)CC1
    0.7, -7, -6%, 10, -13
CCCCC(CC)C(=O)Nc1cc(=O)[nH]c2nc3ccccc3n12 (centres undefined)
    -0.6, 2, /, /, /
O=C(O)CCc1ccc(-c2cccs2)n1NC(=O)c1ccccc1Br
    -2.4, -3, 0%, -1, -35
Cc1ccc(OCC(=O)NNC(=O)c2cc3ccccc3o2)cc1C
    -1.4, -4, 2%, -1, -24
O=C(Nc1ccccc1F)C(=O)c1cn(CC(=O)N2CCCCC2)c2ccccc12
    -1.3, -4, /, -8, /
CCN(CC)c1ccc(/C=N/NC(=O)c2c[nH]c3ccccc23)cc1
    -4.1, 3, 1%, -7, -15
Cc1cc(C)n(CC(=O)N2CCCC(N3CCN(Cc4ccc5c(c4)OCO5)CC3)C2)n1 (centres undefined)
    1.5, 4, /, /, /
CC(=O)c1ccc(NC(=O)c2ccc(-n3cncn3)c([N+](=O)[O-])c2)cc1
    0.6, -6, /, /, /
O=C(N/N=C/c1ccccn1)c1ccc(N/N=C/c2ccccn2)cc1
    -1.9, 45, -4%, -4, /
O=C(Nc1cccc(C(=O)O)c1)/C(=C\c1ccccc1Cl)NC(=O)c1ccco1
    1.4, -6, /, /, /
O=C(NCc1ccc2c(c1)OCO2)Nc1ccc2nsnc2c1
    1.9, -4, 3%, /, /
COc1cccc(C(=O)NN2c3ccccc3CCc3ccccc32)c1
    -1.5, -2, 5%, -15, -16
O=C1CC(=O)N(CCNc2ncc(C(F)(F)F)cc2Cl)C(=O)N1
    0.4, 7, 0%, 2, 4
CCOc1ccc2nc(NC(NC(=O)CC)(C(=O)OC)C(F)(F)F)sc2c1 (centres undefined)
    2.0, 3, -5%, -1, -29
CN1C(=O)Cc2cc(S(=O)(=O)Nc3ccc(Cl)cc3)ccc21
    8.5, 4, /, /, /
COc1cc(OC)c(NC(=O)CCc2nc(-c3cccs3)no2)cc1Cl
    4.8, -4, 2%, -15, -4
CCN(CC(=O)NCc1ccc(F)cc1)C(=O)Cc1ccc(OC)cc1
    -0.5, 3, /, /, /
COc1ccc(S(=O)(=O)N2CCCCCC2)cc1C(=O)N(C)CC(=O)Nc1ccc(Cl)c(Cl)c1
    -1.9, -13, /, /, /
CCN(CC)C1=C(Cl)C(=O)C(Cl)C12OCCO2 (centres undefined)
    0.8, -12, -14%, /, /
Cc1ccc(N(CC(=O)N2CCCCCC2)S(C)(=O)=O)cc1Cl
    -3.1, -10, /, /, /
Cc1cccc(NC(=S)Nc2ccc3cn[nH]c3c2)c1
    3.4, -3, -13%, 2, -24
CCCCCCCCN1C(=O)C(O)=C(C(C)=O)C1c1ccccn1 (centres undefined)
    -0.7, -3, -11%, 2, -27
O=C(c1ccccc1)C1CCN(C(=O)Nc2ccccc2)CC1
    -1.9, -3, -3%, /, /
COc1ccc(/C(O)=C2/C(=O)C(=O)N(CCN(C)C)C2c2ccc(OC)c(OC)c2)c(C)c1 (centres undefined)
    -1.1, 2, -1%, 5, -40
COc1cc(/C=C2\SC(=S)N(N(C)c3ccccc3)C2=O)ccc1O
    13, 1, -7%, /, /
CCn1c(=O)n(CC(=O)N2CCN(c3ccccc3F)CC2)c(=O)c2ccccc21
    1.2, -2, -9%, -9, -45
Cc1ccc(N2CCN(S(=O)(=O)c3ccc4c(c3)oc(=O)n4C)CC2C)cc1 (centres undefined)
    -1.8, 1, /, /, /
CNc1c(NC(=O)C2CCC(C)CC2)c(=O)oc2ccccc12 (centres undefined)
    2.5, -1, /, /, /
COc1ccc(CNC(=O)c2noc3c2CCCCC3)cc1
    -0.8, -8, 3%, 8, -12
Cc1ccc(N2C(=O)CC(c3ccsc3)C3=C2CC(C)(C)CC3=O)cc1 (centres undefined)
    5.4, 0, -9%, -4, -5
NS(=O)(=O)c1ccc(CCNC(=O)CN2C(=O)COc3ccc(S(=O)(=O)N4CCCC4)cc32)cc1
    -0.7, -2, /, /, /
CC1=C(C(N)=O)C(c2ccc(Br)cc2)n2ncnc2N1 (centres undefined)
    2.9, -4, /, /, /
COc1ccc(COC(=O)CCc2c[nH]c3ccccc23)cc1F
    4.3, 98, /, /, /
O=C(C1CCC1)N1CCN(S(=O)(=O)c2ccccc2)CC1
    -7.8, -16, /, /, /
CC1(C)CC(CC(=O)Nc2nccs2)(c2ccccc2)CCO1 (centres undefined)
    -0.4, -6, -8%, 10, -10
COc1ccc(Nc2oc(-c3ccc(Cl)cc3)nc2C#N)cc1
    -1.4, -2, 1%, -20, -11
C/C=C\C=C/C(=O)Nc1cccc(C2=NOC3(C2)C[C@H](C(N)=O)N(C(=O)c2ccc(OC)cc2)C3)c1 (some centres undefined)
    1.7, -13, -1%, /, /
CCCCSc1nnc(-c2ccccc2N)c(=O)[nH]1
    4.1, 6, -13%, 5, -1
CCOc1ccc(NC(=O)CN2CCN(C3c4ccccc4-c4ccccc43)CC2)cc1
    -2.7, 100, 22µM*, 11, -19
CC1(C#N)c2ccccc2C(Br)=CN1C(=O)c1ccccc1 (centres undefined)
    16, 8, /, /, /
CCOc1ccc(-c2n[nH]c(C)c2Oc2ccccc2OC)c(O)c1
    7.7, -6, 4%, -4, -6
Clc1ccc(C2CC(c3cccs3)n3ncnc3N2)cc1 (centres undefined)
    1.1, 97, 9%, /, /
O=C1CN(S(=O)(=O)c2cccc(C(=O)O)c2)c2ccccc2N1
    -0.7, 2, /, /, /
COc1ccc(NC(=O)Nc2c(O)ccc3ccccc23)cc1
    59*, 6, /, /, /
N#C/C=C(/N)N1CCN(c2ccc(Cl)c(Cl)c2)CC1
    3.0, 47, 15%, 0, 2
O=S(=O)(Nc1ccc2c(c1)OCCO2)c1cccs1
    2.4, 5, 12%, -1, -12
O=C(Oc1ccc2ccccc2c1)C1CCC1
    -2.6, 57, /, /, /
CCC1CCCCN1CCCNC(=O)C1CCN(c2ncnc3c2nc2n3CCCCC2)CC1 (centres undefined)
    -3.8, 2, /, /, /

# Carrying on.
# Results follow in this order: RecA splice inh, Mtb bLac sens, Mtb H37Rv, Arbovirus anti, YopH PTP inh
CCc1ccc(N(CC(=O)NC(C)(C)C)C(=O)CNC(=O)c2cccs2)cc1
    -3.7, -4, /, /, /
CN(C)C(=O)Oc1cccc(-c2cn3cc(Cl)ccc3n2)c1
    -2.1, 1, 4%, 0, -21
CN(C)CC/C=C1/c2ccccc2Sc2c(O)cc(Cl)cc21
    5.5, -8, 1%, 21, -25
Cc1ccc2c(c1)N(Cc1cccc(C#N)c1)C=NS2(=O)=O
    0.0, -10, /, /, /
Cc1ccc(S(=O)(=O)Cc2ccc(C(=O)NCCc3ccccc3)o2)cc1
    -2.0, -2, /, /, /
NC(N)=NC(N)=Nc1cccc(Cl)c1
    -0.2, 2, -10%, /, /
CCn1c(-c2nonc2NC(=O)c2ccccc2)nc2ccccc21
    2.0, 5, 4%, -6, -16
Cc1ccc(-n2c(O)c(C=NCCCn3ccnc3)c(=O)[nH]c2=O)cc1
    -0.6, 2, -4%, /, /
CCOC(=O)C1CCCN(C(=O)c2cc(S(=O)(=O)N3CCCCC3)ccc2C)C1 (centres undefined)
    -1.3, -11, 0%, /, /
CC(C)CNS(=O)(=O)c1ccc(CCC(=O)N2CCN(Cc3ccccc3)CC2)cc1
    0.6, -6, 8%, -13, -13
C/C(=N\NS(=O)(=O)c1ccccc1)c1cccc(NC(=O)c2cccc(Cl)c2)c1
    6.3, 0, 7%, 47*, -11
COc1cc(NC(=O)CCc2nnc3ccc(N4CCC5(CC4)OCCO5)nn23)cc(OC)c1
    -1.8, -2, /, /, /
COc1ccc(C(=O)NC(=S)NCc2cccnc2)cc1OC
    /, 0, 0%, -1, /
CCOc1ccc(N=C2NC(=O)SC2CC(=O)OC)cc1 (centres undefined)
    /, 19, 1%, /, /
COC(=O)c1sccc1NC(=O)c1ccoc1C
    -0.4, 3, 1%, 0, -51
